# Screening data from PubChem.
# KCNQ2 inh: KCNQ2 potassium channel inhibitors, primary screen, cell-based, CHO-K1, FluxOR thallium flux, B-score (AID 2156); 20 min; active compounds read low; only compounds with negative scores are shown here; some inactives read as strong as hits; 310,000 tested, 1.1% active; O88943; B-score at 10 µM;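 active means fluorescence ratio B-score at most minus 3 library SDs, with starting brightness B-score within 2 library SDs, cut at about -5.5 in these data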
# Target sequence (O88943 whole entry, looked up): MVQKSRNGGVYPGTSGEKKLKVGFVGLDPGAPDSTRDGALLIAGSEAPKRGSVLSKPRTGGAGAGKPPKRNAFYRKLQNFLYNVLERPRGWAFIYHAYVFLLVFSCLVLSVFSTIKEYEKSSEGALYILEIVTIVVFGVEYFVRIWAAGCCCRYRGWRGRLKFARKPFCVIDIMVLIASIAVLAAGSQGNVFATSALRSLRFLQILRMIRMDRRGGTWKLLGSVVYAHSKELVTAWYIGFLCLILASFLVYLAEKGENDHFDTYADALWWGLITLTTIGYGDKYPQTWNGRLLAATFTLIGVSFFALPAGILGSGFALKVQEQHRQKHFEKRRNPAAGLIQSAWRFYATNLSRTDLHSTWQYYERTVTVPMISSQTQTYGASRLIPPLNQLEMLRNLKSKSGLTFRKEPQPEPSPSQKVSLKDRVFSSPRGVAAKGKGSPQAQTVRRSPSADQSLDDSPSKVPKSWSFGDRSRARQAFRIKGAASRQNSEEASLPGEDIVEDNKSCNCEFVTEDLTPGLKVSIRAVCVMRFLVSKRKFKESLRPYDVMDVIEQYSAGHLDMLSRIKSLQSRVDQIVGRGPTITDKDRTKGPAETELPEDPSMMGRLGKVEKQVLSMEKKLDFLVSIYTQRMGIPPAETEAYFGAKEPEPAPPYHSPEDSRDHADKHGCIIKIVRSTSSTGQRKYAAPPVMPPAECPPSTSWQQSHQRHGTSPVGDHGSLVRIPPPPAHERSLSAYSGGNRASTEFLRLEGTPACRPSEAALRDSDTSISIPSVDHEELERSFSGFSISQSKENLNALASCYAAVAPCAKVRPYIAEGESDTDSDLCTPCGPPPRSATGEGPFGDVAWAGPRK
# KCNQ2 inh baseline: recorded beside KCNQ2 inh, whose call it bears; B-score; measured here: initial fluorescence intensity artifact check;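 brightness before thallium and not channel activity; 0 = typical well and far values either way flag optical interference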
# * hit, by the source's call; i = inactive.
SMILES,KCNQ2 inh,KCNQ2 inh baseline
CCCn1c(N)c(NCCN2CCOCC2)c(=O)n(CC(=O)NCc2ccccc2)c1=O,i,0.72
Cc1ccc(N2CC(C(=O)N/N=C/c3c(F)cccc3Cl)CC2=O)cc1 (configuration not stated),i,-0.66
CCN1CCN(CCC(=O)Nc2ccc(Br)cc2)CC1,i,-3.1
Cc1ccc(NC(=O)CN2C(=O)S/C(=C/c3ccncc3)C2=O)cc1,i,-2.5
COc1ccccc1C(=O)NNC(=O)c1cccc([N+](=O)[O-])c1,i,-1.4
Cc1[nH]n(C(N)=S)c(=O)c1N=Nc1cc(-c2ccc(Br)cc2)[nH]n1,i,0.61
Cc1ccc(CSC(Nc2ccc(F)cc2)=C(C#N)C#N)cc1,i,0.54
FC(F)Oc1ccc(NC(=S)NCC2COc3ccccc3O2)cc1 (configuration not stated),i,-0.05
CCc1c(C(=O)O)[nH]c2ccc(Br)cc12,i,-2.4
CCN1CCN(C(=O)c2ccc(COc3cccc(Cl)c3)o2)CC1,i,-0.18
Cc1cc(C)c(OCC(=O)OCC(=O)NCc2cccs2)c(C)c1,i,1.6
O=C(NCc1ccccc1)c1noc2c1CCCCC2,i,-1.5
COc1ccc(C2N3CC4(C)CN2CC(C)(C3)C4O)cc1 (configuration not stated),i,-0.06
CC(C)(C)c1ccc(Cn2c(=N)n(CC(O)c3ccco3)c3ccccc32)cc1 (configuration not stated),i,-1.2
N#CC1CCN(C(=O)c2ccc3c(Cl)c4c(nc3c2)CCCC4)CC1,i,0.02
COc1ccc(-c2nc(C#N)c(N3CCCCCC3)o2)cc1OC,i,0.24
Cc1ccc(NC(=O)CS(=O)CC(=O)N(c2ccccc2)C(C)C(=O)NC2CCCC2)cc1 (configuration not stated),i,0.06
CCCCOC(=O)CCc1c(C)n[nH]c1C,i,0.72
COc1ccc2c(c1)CCc1c(C(=O)N(C)c3ccccc3)noc1-2,i,-1.2
Cc1ccc(NC2=CC(=O)CCC2)cc1C,i,-1.1
Cc1oc2ccc(OC(C(=O)O)c3ccccc3)cc2c1C(=O)O (configuration not stated),i,-0.22
COc1ccc(CCNC(=O)c2ccc(CS(=O)(=O)c3ccc(Br)cc3)o2)cc1OC,i,0.17
Cc1ccc(C2(C)NC(=O)N(CC(=O)c3ccc(Cl)s3)C2=O)cc1 (configuration not stated),i,0.36
CCOc1ccc(S(=O)(=O)NCCC(=O)N2CCN(Cc3ccccc3)CC2)cc1,i,1.2
CCOc1ccccc1C(=O)N(C)CC(=O)Nc1ccc(OC)cc1,i,1.5
# (continued)
SMILES,KCNQ2 inh,KCNQ2 inh baseline
CCCn1cnc2c(cnn2-c2ccc(F)cc2)c1=O,i,1.8
CC1CN(c2nc(-c3ccc(Br)cc3)nnc2-c2ccccc2)CC(C)N1 (configuration not stated),i,0.18
O=C(CN(C(=O)c1csnn1)c1ccccc1F)NCc1ccccc1,i,0.44
CCCCc1nc2cc(C(=O)N3CCN(c4nc(C)cnc4C)CC3)ccc2o1,i,-0.4
Cc1cc(S(=O)(=O)N2CCOCC2)ccc1OCC(=O)Nc1ccccc1F,i,-0.09
CC(=O)Nc1ccc(NC(=O)CS(=O)(=O)Cc2ccccc2)cc1,i,1.4
CCOc1c(C)cc(S(=O)(=O)NCc2cccnc2)c(C)c1C,i,-0.33
CCCN(CCC)CCSc1nc(O)c(C(C)C)c(=O)[nH]1,i,-1.5
CCN(Cc1ccccc1)S(=O)(=O)c1ccc(C(=O)N(CCCN(C)C)c2nc3cc4c(cc3s2)OCO4)cc1,i,-0.07
CC1CCC(N2CCN(S(C)(=O)=O)CC2)CC1 (configuration not stated),i,-0.06
COc1ccc(-c2nnn(CCc3nn[nH]n3)n2)cc1,i,-0.73
Cc1c(C(=O)O)[nH]c2c1C(=O)CC(c1ccc(Cl)cc1)C2 (configuration not stated),i,0.47
CC(C)CNC(=O)c1cccc(NC(=O)CCc2ccccc2)c1,i,-0.7
CCn1c(O)c(N=NC(=O)Cc2csc(N3CCOCC3)n2)c2ccccc21,i,-1
CCCCC(=O)Nc1cccc(NC(=O)c2cccnc2Cl)c1,i,0.66
COc1ccc(-c2noc(CCC(=O)NCCCN3CCC(C)CC3)n2)cc1,i,0.37
Cc1onc(-c2ccccc2)c1C(=O)NCC1CCCO1 (configuration not stated),i,1.5
COCCCN1C(=O)C(=O)/C(=C(/O)c2ccc(OCC(C)C)cc2C)C1c1cccnc1 (configuration not stated),i,1.2
COc1ccccc1Nc1ncnc2nc[nH]c12,i,-0.75
COC(=O)C1CCN(Cc2cn(-c3ccccc3)nc2-c2ccc3c(c2)OCO3)CC1,i,1.8
Cc1ccc2[nH]c3c(c2c1)CCCC3C(N)=O (configuration not stated),i,2.5
CCOC(=O)CSc1nc(C(C)C)nc2ccccc12,i,-0.35
Cc1[nH]c2ccccc2c1Cc1n[nH]c(=S)n1C,i,1
O=[N+]([O-])c1cccc(/C=N/N=C\c2ccccc2)c1,i,0.39
COc1cc(OC)cc(C(=O)N2CCC(n3c(C)nc4cc(F)ccc43)CC2)c1,i,0.79
# Further results follow:
SMILES,KCNQ2 inh,KCNQ2 inh baseline
O=C(NCc1ccccc1Cl)c1ccc(-c2ccccc2)cc1,i,-0.28
Cc1occc1C(=O)N=Nc1c(O)[nH]c2ccc(Br)cc12,i,0.34
CCOc1ccc(N(CC(=O)Nc2ccc(C)c(C)c2)S(=O)(=O)c2c(C)noc2C)cc1,i,-0.07
Cc1ccc(NC(=O)CC(=O)Nc2ccc(C)cc2C)c(C)c1,i,-1.3
COc1ccccc1NC(=O)C(CC(C)C)NC(=O)C1CCCCC1 (configuration not stated),i,0.01
CC(=O)Nc1ccc(S(=O)(=O)Nc2cc(C)c(-n3nc4ccccc4n3)cc2O)cc1,i,-0.94
Cc1nnc(SCC(=O)Nc2sccc2C(N)=O)n1Cc1ccccc1,i,-0.14
Cc1cc(C)n2c(SCC(=O)NC3CCCCC3C)nnc2n1 (configuration not stated),i,-0.85
CCOc1cc(/C=C(/C#N)C(=O)Nc2ccc(O)cc2)cc(Br)c1O,i,4.6
COc1cccc(NC(=O)CN(C)C(=O)c2cc(-c3ccco3)nc3ccccc23)c1,i,0.01
O=C1CN(C(=S)Nc2ccc(OC(F)F)cc2)CCN1,i,0.01
CCOC(=O)C1=C(C)C(c2ccccc2OC)NC(=S)N1 (configuration not stated),i,1.5
CCN1C(=O)/C(=C2\SC(=S)N(NC(=O)c3cccnc3)C2=O)c2ccccc21,i,-0.76
COc1ccc(C(=O)N[C@H](C(=O)NCc2ccc(C)cc2)C(C)C)cc1,i,-0.03
Cc1ccccc1NCC(=O)N/N=C/c1c[nH]c2ccccc12,i,-0.43
Nc1nnc(Cc2ccccc2)s1,i,0.53
COc1ccc(S(=O)(=O)N2CCN(Cc3cccnc3)CC2)cc1,i,2.6
CC(C)c1cc(-c2n[nH]c(=S)n2Cc2ccccc2)cs1,i,0.13
CC1(C)CC(=O)C2=C(C1)N(c1ccc(F)cc1)C(=O)CC2c1ccccc1 (configuration not stated),i,0.05
COc1ccc(C(=O)NCc2cc(C)nc3ccccc23)cc1OC,i,0.78
Cc1noc(C)c1CSCC(=O)Oc1ccc(N(C)S(=O)(=O)c2ccccc2)cc1,i,2.1
COc1ccc(-n2c(C)nc3sc4c(c3c2=O)CCC4)cc1,i,-0.17
c1ccc(Nc2n[nH]nc2-c2ccccc2)cc1,i,-1.2
CCCCN(CC)CCNc1c(N2CCN(C(=O)OCC)CC2)c(=O)c1=O,i,0.08
Cc1ccc(NC(=O)NCCCN2CCCC2=O)c(C)c1,i,0.06
# (cont.)
SMILES,KCNQ2 inh,KCNQ2 inh baseline
CC(NCc1cccc(S(=O)(=O)N(C)C)c1)c1ccc(F)cc1 (configuration not stated),i,-0.78
COc1cccc(NC(=O)COC(=O)CCCc2c[nH]c3ccccc23)c1,i,-0.89
N#C/C(C(=O)Nc1ccc(Cl)cc1)=C(/S)Nc1ccccc1,i,2.2
O=C(O)C1CCN(S(=O)(=O)c2ccc(N3CCC(O)CC3)c([N+](=O)[O-])c2)CC1,i,1.2
O=C(CCc1ccc(S(=O)(=O)NCc2ccccc2)cc1)NCc1ccc2c(c1)OCO2,i,-1.7
CC(C)c1ccc(CN2CCC(C(=O)NCc3cccnc3)CC2)cc1,i,1.2
O=C(NCCCC1CCCC1)C1CCC(=O)N(Cc2cccc(F)c2)C1 (configuration not stated),i,0.35
COc1cc(CNc2ccc3[nH]c(=O)[nH]c3c2)ccc1OCC(=O)NC(C)(C)C,i,-0.36
CCOC(=O)N1CCC(NC(=O)c2sc(-n3cccc3)nc2C)CC1,i,-0.05
O=C(N/N=C/c1sc(N2CCOCC2)nc1-c1ccccc1)c1ccccc1F,i,1
CCOCCCNC(=O)c1ccc(N2CC3CC(C2)c2cccc(=O)n2C3)c(NC(=O)Nc2cccc(OC)c2)c1 (configuration not stated),i,0.54
O=C(NCc1cccs1)c1ccc(Cl)s1,i,-0.8
CCCn1nnc(NC(=O)c2cc3ccccc3o2)n1,i,-0.07
CCOc1ccc(N2C(=O)c3ccccc3C2O)cc1 (configuration not stated),i,-0.59
Cc1ccc(S(=O)(=O)Cc2ccc(C(=O)N3CCCCCC3)o2)cc1,i,-0.92
CCCCc1nc(N2CCOCC2)c(C#N)c2c1CCCC2,i,-0.03
CCOC(=O)c1[nH]c2ccc(F)cc2c1NC(=O)C(C)N1CCc2cc(OC)c(OC)cc2C1 (configuration not stated),i,-0.56
CN1C(=O)C(Cl)(Cl)C(=O)c2ccccc21,i,-0.12
O=C(Cn1cnc2ccccc2c1=O)NCCC(=O)N1CCN(Cc2ccccc2)CC1,i,-0.49
O=C(OCCN1CCCCC1)c1ccccc1Cl,i,0.95
Nn1c(SCC(=O)NC2CCCC2)nnc1-c1ccccc1F,i,0.47
CC1CCCCC1NC(=O)CN1C(=O)c2ccccc2S1(=O)=O (configuration not stated),i,1.1
Cn1cccc1/C=N\NC(=O)C1COc2ccccc2O1 (configuration not stated),i,1.1
COc1ccc(-c2nnc(SC(C)C(=O)NCc3ccc4c(c3)OCO4)n2Cc2ccco2)cc1 (configuration not stated),-8.2*,-1.4*
CCCCOC(=O)C1=C(C)Nc2nnnn2C1c1ccc(OC)c(OC)c1OC (configuration not stated),i,-1.9

# An excerpt from above in order of SMILES length, descending.
SMILES,KCNQ2 inh,KCNQ2 inh baseline
CCOC(=O)c1[nH]c2ccc(F)cc2c1NC(=O)C(C)N1CCc2cc(OC)c(OC)cc2C1 (configuration not stated),i,-0.56
O=C(CCc1ccc(S(=O)(=O)NCc2ccccc2)cc1)NCc1ccc2c(c1)OCO2,i,-1.7
O=C(N/N=C/c1sc(N2CCOCC2)nc1-c1ccccc1)c1ccccc1F,i,1
N#C/C(C(=O)Nc1ccc(Cl)cc1)=C(/S)Nc1ccccc1,i,2.2
CC1CCCCC1NC(=O)CN1C(=O)c2ccccc2S1(=O)=O (configuration not stated),i,1.1
O=C(NCc1cccs1)c1ccc(Cl)s1,i,-0.8

# Continued.
SMILES,KCNQ2 inh,KCNQ2 inh baseline
CCOC(=O)c1c(CCl)nc2ccccc2c1-c1ccccc1,i,-0.37
CCCc1cc(=O)oc2cc(OCC(=O)NC(Cc3c[nH]c4ccc(O)cc34)C(=O)O)c(Cl)cc12 (configuration not stated),i,0.62
COc1cc(/C=N/NC(=O)c2ccncc2)cc(OC)c1OC,i,-0.98
C(=N\Nc1nc2ccccc2[nH]1)/c1c[nH]c2ccccc12,i,0.74
CC(=O)c1ccc(C(=O)N2CCCC(Nc3ccc(C(C)C)cc3)C2)s1 (configuration not stated),i,-1.1
CCCCCCCCNC(=O)CC(NS(=O)(=O)c1ccc(NC(C)=O)cc1)C(C)C (configuration not stated),i,0.94
CCCCCC(=O)NNC1CC(=O)N(c2cccc(OCC)c2)C1=O (configuration not stated),i,-0.5
CCOC(=O)N1CCC(=NNc2ccnc3cc(Cl)ccc23)CC1,i,0.28
COc1ccc2c(c1)N(C(=O)CN1C(=O)C3CCCCC3C1=O)C(C)(C)C=C2C (configuration not stated),i,1
CC(=O)COC(=O)C1=NN(c2ccccc2)C(=O)CC1,i,0.67
CC1CCN(S(=O)(=O)c2ccc(NC(=O)c3cccs3)cc2)CC1,i,-1.7
Cn1c(CN2CCOCC2)nnc1SCc1cccc(F)c1,i,-0.02
N#Cc1ccccc1Cn1cc(C#N)c2ccccc21,i,0.4
O=C(c1ccc(F)cc1F)N1CCCc2ccccc21,i,-1
CC1CCN(C(=O)/C(=C/c2ccccc2Cl)c2ccccc2)CC1,-7.5*,-1.3*
COc1cc(C(=O)NCCOc2cc(C)cc(C)c2)cc(OC)c1OC,i,2.4
CCCOc1ccc(N/C=C/C(=O)C(C)(C)C)cc1,i,0.48
Cc1cc(=O)n(C)c(=O)n1CCCNc1ccccc1,i,1.6
CCOc1ccc(N2C(=O)CC(NC3CCN(C(=O)c4cccs4)CC3)C2=O)cc1 (configuration not stated),i,-1.7
COc1ccccc1NC(=O)C1=C(C)NC(SCC(=O)c2ccccc2)=C(C#N)C1c1ccco1 (configuration not stated),-12*,1.5*
CCOC(=O)C(C(=O)Nc1cccc(C)c1)C1CCCCC1 (configuration not stated),i,1.3

# Entries of single compounds, looked up by structure. Order of screens: KCNQ2 inh	KCNQ2 inh baseline
# `O=C(c1ccc(F)cc1F)N1CCCc2ccccc21` as listed: i	-1
# `CCOc1ccc(N2C(=O)CC(NC3CCN(C(=O)c4cccs4)CC3)C2=O)cc1` (configuration not stated) as listed: i	-1.7
# `CCOC(=O)N1CCC(=NNc2ccnc3cc(Cl)ccc23)CC1` as listed: i	0.28
# `C(=N\Nc1nc2ccccc2[nH]1)/c1c[nH]c2ccccc12` as listed: i	0.74
# `COc1cc(C(=O)NCCOc2cc(C)cc(C)c2)cc(OC)c1OC` as listed: i	2.4

# Quoted at random: 2 records from the list.
SMILES,KCNQ2 inh,KCNQ2 inh baseline
CC1CN(c2nc(-c3ccc(Br)cc3)nnc2-c2ccccc2)CC(C)N1 (configuration not stated),i,0.18
O=C(OCCN1CCCCC1)c1ccccc1Cl,i,0.95

# This is a subset; count on the stated rates, not on these rows.
